Autofluor counter = counter-screen for toxin protease inhibitors: compound fluorescence; compound autofluorescence counterscreen, microsphere flow cytometry; stronger effect = higher value; 3.1% of 360,000 active; fluorescence intensity (concentration not given with the values);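 active means at least 3 SD above the mean of all compounds, about 16000 in these data; inconclusive means too few beads counted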;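 further: 100 nL of 1 mM stock went into each well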
PrP 5UTR inh = suppresses PrP 5' UTR mRNA reporter expression; 0.35% of 340,000 active; cell-based PrP 5' UTR mRNA reporter, plate reader; inhibition, % (test concentration not listed);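 active means every replicate at 50% or more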;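 further: 0 = median of the neutral control wells; tested in H4 reporter cells; numbers are from one replicate; inactives centre near -14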
BJeLR lethal = kills HRASV12-expressing BJeLR cells | BJeLR (HRASV12) viability, CellTiter-Glo ATP luminescence, 48 h; reference of the scale not given here | inhibition, % (test concentration not listed) | 0.17% of 300,000 active | AID 1554;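 active means replicate mean above 50%; inconclusive means above 50% but judged a plate artefact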;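 further: 50 nL library stock added to about 25 µL; numbers are from one replicate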
Mtb hypoxia rep = reduces hypoxia-regulated biosensor signal in M. tuberculosis; M. tuberculosis hypoxia-regulated fluorescent reporter, fluorescence; AID 1159583; fluorescence inhibition, % (concentration not given with the values); 0.1% of 300,000 active;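 active means 35 to 45% if threefold the growth effect, above 45% if 1.5-fold the growth effect; inactive means the rest, general growth blockers included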;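 further: wells of about 50 µL received 100 nL stock; 0% = vehicle wells and 100% = reference inhibitor wells; whole bacteria with a GFP reporter of the hypoxia response; strong numbers were not always called active; many hits fall short of the cut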
Sa RN4220 lethal = kills Staphylococcus aureus RN4220; S. aureus RN4220 growth, OD600, 16 h; inhibition, % (concentration not given with the values); 0.33% of 330,000 active;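 active means z-score of -3 or lower and OD600 up to 0.18 on both plates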;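 further: plate controls were untreated cells for no effect and reference antibiotic for full effect; stock transfer was 100 nL into about 80 µL; one replicate is shown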
ugtP null kill = compounds lethal to S. aureus RN4220 ugtP deletion mutant. growth inhibition, % (test concentration not listed). AID 1259309. 0.54% of 330,000 active. OD600 growth, 16 h; some inactives read as strong as hits;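 active means z-score under -3 and OD600 up to 0.15 on both plates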;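 further: plate controls were untreated wells for no effect and antibiotic for full effect; wells of about 80 µL received 100 nL stock; the first replicate is given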
Mtb hypoxia rep growth = also measured in Mtb hypoxia rep; calls as there; growth inhibition, %; measured here: M. tuberculosis growth (absorbance);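 0% = vehicle and 100% = reference antibiotic; read after six days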
Active calls of the source: *; ? = inconclusive; . = no result given.

SMILES	Autofluor counter	PrP 5UTR inh	BJeLR lethal	Mtb hypoxia rep	Mtb hypoxia rep growth	Sa RN4220 lethal	ugtP null kill
O=C(O)CSC1CC(=O)N(c2ccc(Cl)c(Cl)c2)C1=O (configuration not stated)	4666	1.5	-9.5	.	.	0.8	-7.3
COc1ccc(S(=O)(=O)N2CCSC2c2ccc(N)cc2)cc1 (configuration not stated)	12950	-15.6	7.2	16.2	11.7	6.1	-0.9
CCNS(=O)(=O)c1ccc(NC(=O)Nc2cc(C)ccc2OC)cc1	3937	-26.0	-1.0	10.1	15.0	-1.8	11.2
CN(C)S(=O)(=O)c1ccc(N2CCN(S(=O)(=O)c3ccc(F)cc3)CC2)c(Cl)c1	5013	-5.5	17.5	-2.2	-5.3	1.5	7.4
CS(=O)(=O)N(CCC#N)Cc1ccco1	5084	-10.3	4.4	2.7	8.5	4.4	6.2
CCC1CCCCN1C(=O)c1sc2ncnc(N(CC)CC)c2c1C (configuration not stated)	2649	-14.6	-1.4	2.9	4.1	4.1	8.2
O=C(CNC(=O)Cc1ccccc1)NCC(=O)N1CCN(C(c2ccccc2)c2ccccc2)CC1	3503	-1.1	6.6	10.1	2.0	-0.6	11.3
O=C1CC(c2ccccc2)Cc2nc3ncnn3cc21 (configuration not stated)	10641	-15.5	8.0	3.1	6.0	1.7	2.5
Cc1ccc(S(=O)(=O)Nc2cccc(C(=O)NCC(C)(C)N3CCOCC3)c2)cc1F	4708	-29.8	1.2	12.7	3.4	3.0	2.9
COc1ccc2nc(SCC(=O)Nc3ccccc3C#N)[nH]c2c1	2371	-29.6	-3.9	5.9	5.7	-5.4	-0.6
CCn1c(SCC(=O)N2CCCC2)nc2ccccc21	4165	-4.4	0.5	-3.8	3.4	8.9	4.0
COc1cc(NC(=O)CCn2c(=O)oc3ccccc32)cc(OC)c1OC	4730	-7.1	-13.3	2.9	4.1	0.1	0.0
CCOC(=O)C1=C(C)Nc2nnnn2C1c1ccc(OC)c(Br)c1 (configuration not stated)	5613	-8.2	1.0	4.3	11.3	-4.1	-5.5
CC(C)CCOc1ccc(C2(C)NC(=O)N(CN3CCOCC3)C2=O)cc1 (configuration not stated)	2390	-17.1	4.5	15.5	9.9	-12.1	-12.6
COc1ccc(-c2nc(=S)[nH][nH]2)cc1OC	3899	-16.2	-5.9	17.5	6.8	8.5	9.1
O=C1CC(N2CCC(c3nc4ccccc4s3)CC2)C(=O)N1Cc1ccccc1 (configuration not stated)	23583*	-7.2	-8.7	-0.9	-5.1	5.2	1.4
O=S(=O)(NCCc1csc(-c2cccnc2)n1)c1ccc(Cl)s1	6976	-12.6	4.5	0.9	4.7	-11.7	1.6
CCCCN(CC)CCCNC(=O)c1cc2c(-c3ccc(OC)c(OC)c3)nn(C)c2s1	4548	-13.8	1.0	5.6	5.6	-0.2	18.0
Oc1ccccc1/C=N/NC(=S)NCCc1ccccc1	4203	-13.2	-8.6	.	.	.	.
O=c1c([N+](=O)[O-])cccn1Cc1cccc(Cl)c1	4281	-40.8	-9.0	18.1	14.5	1.9	7.2
CCOc1ccc(Nc2nc(N)nc(CN3CCN(c4ccccc4F)CC3)n2)cc1	1949	-1.3	-2.4	4.7	2.9	6.3	7.5
Cc1cc(S(=O)(=O)NC2CCCCC2)ccc1OCC(=O)NCc1ccccn1	2309	-21.8	6.4	.	.	-1.9	-5.9
O=[N+]([O-])/C=C\c1ccc(N2CCCC2)c(F)c1	9527	0.2	26.7	-8.7	-3.1	6.2	9.4
C/C(=C\C(=O)c1ccccc1)Nc1ccc(Br)c(Cl)c1	4447	-15.8	-6.3	-1.6	7.6	3.7	8.9
CCn1c(C(C)NC(=O)c2ccccc2C)n[nH]c1=S (configuration not stated)	2366	-17.4	-3.3	10.3	7.3	0.9	11.7
Fc1ccc(CSc2ccc3nnc(-c4cccnc4)n3n2)cc1	3753	1.6	-3.0	11.7	5.0	4.3	8.8
O=c1[nH]c(=S)[nH]c(O)c1N=Nc1ccc2c(c1)OCO2	4210	-49.6	2.1	.	.	.	.
CCN(CC)S(=O)(=O)c1ccc(C(=O)NNC2=NS(=O)(=O)c3ccccc32)cc1	3706	6.6	-4.8	-12.9	0.8	0.9	0.9
CSc1cccc(NC(=S)N2CCC(N(C)C3CCCC3)CC2)c1	4166	-17.5	15.6	-8.5	2.6	-0.9	-6.9
O=C(COC(=O)CN1C(=O)NC2(CCCCC2)C1=O)Nc1cc(F)ccc1F	3818	-28.2	.	23.5	4.7	-1.9	4.0

Full records from above:
Entry for O=C(COC(=O)CN1C(=O)NC2(CCCCC2)C1=O)Nc1cc(F)ccc1F = Autofluor counter = 3818; PrP 5UTR inh = -28.2; BJeLR lethal = .; Mtb hypoxia rep = 23.5; Mtb hypoxia rep growth = 4.7; Sa RN4220 lethal = -1.9; ugtP null kill = 4.0
Entry for CSc1cccc(NC(=S)N2CCC(N(C)C3CCCC3)CC2)c1 = Autofluor counter = 4166; PrP 5UTR inh = -17.5; BJeLR lethal = 15.6; Mtb hypoxia rep = -8.5; Mtb hypoxia rep growth = 2.6; Sa RN4220 lethal = -0.9; ugtP null kill = -6.9

The list continues:
SMILES	Autofluor counter	PrP 5UTR inh	BJeLR lethal	Mtb hypoxia rep	Mtb hypoxia rep growth	Sa RN4220 lethal	ugtP null kill
O=C(N/C(=C\c1ccccc1)C(=O)N1CCOCC1)c1ccco1	4177	-16.5	-1.1	4.8	6.2	-0.3	-1.7
Cc1nc2ccccc2n1C(=O)N(C)C	3550	-0.2	4.6	1.9	-2.8	2.9	7.1
COc1ccccc1C/C(N)=N/OC(=O)COc1cccc2ccccc12	21885*	-5.6	0.9	-1.6	-1.3	0.8	48.6
C/C(CC(=O)Nc1ccc(OCc2ccccc2)cc1)=N\NC(=O)C(=O)Nc1ccc(C)c(Cl)c1	2757	-24.2	-2.9	.	.	.	.
COc1ccc(C(=O)NNC(=O)CCC(=O)NNC(=O)c2ccc(OC)cc2)cc1	3744	-1.9	-5.4	7.2	4.1	-2.8	4.4
CN(C)CC/C=C1/c2cc(F)ccc2CSc2ccc(F)cc21	8972	-15.9	8.1	9.1	6.5	-5.2	12.9
Cc1cc(NC(=O)CCC(=O)N(CC(=O)NCC2CCCO2)c2ccc(F)c(Cl)c2)no1 (configuration not stated)	4826	-1.5	-7.2	0.3	0.2	5.4	0.4
C/C=C/C(=O)OCC(=O)Nc1ccccc1Br	4310	-13.8	-33.3	6.9	1.1	2.4	4.7
COc1ccccc1OCc1cc(C(=O)N2CCN(C)C(c3ccccc3)C2)no1 (configuration not stated)	6572	-65.3	-1.8	4.2	0.9	0.9	2.3
Cc1cc(=O)oc2c3c(cc(OCC(=O)N4CCC[C@H]4C(=O)O)c12)OC(C)(C)CC3	5829	-10.3	-2.6	.	.	3.5	-5.8
Cc1ccc(S(=O)(=O)NNC(=O)C(O)(c2ccccc2C)c2ccccc2C)cc1	8527	-24.9	-12.4	4.5	2.9	15.0	-13.2
CC(C)N1CC(C(=O)Nc2cccc([N+](=O)[O-])c2)CC1=O (configuration not stated)	4646	-6.3	2.7	-2.1	-2.5	4.8	4.4
O=C(NC1CCCC1)C(c1ccccc1)N(Cc1cccnc1)C(=O)Cc1cccs1 (configuration not stated)	4029	10.2	4.5	1.8	-0.8	5.1	1.2
CCOc1ccccc1NC(=O)Cn1nnc(C(=O)NCCc2ccc(OC)c(OC)c2)c1N	2444	-0.1	2.2	11.9	1.8	6.3	1.9
O=C(/C=N/O)NCC1CCNCC1	4888	-1.5	5.1	.	.	.	.
COc1cc(NC(=O)C(C)C)ccc1NC(=O)c1cc2ccccc2o1	4281	-51.4	-7.5	14.6	4.0	1.6	2.1
CC(C)N(C(=O)[C@H]1CC(CC(=O)NCCC2=CCCCC2)C(=O)N2CCc3c([nH]c4ccccc34)[C@]12C)C(C)C (some centres not stated)	3807	-11.4	.	-0.1	2.9	1.0	-14.2
C/C(=C\C(=O)c1ccncc1)Nc1ccccc1O	2820	-10.3	-11.0	.	.	1.8	-3.9
O=C(NC(=S)Nc1cccnc1)c1cccs1	3292	0.1	-4.4	-1.5	13.8	2.0	7.8
COc1c(C)cc(C(=O)C2CCCN(Cc3cnc(N4CCOCC4)s3)C2)cc1C (configuration not stated)	.	-4.3	10.4	13.1	3.1	2.5	0.4
Cc1cccc(/C=N/N2CCN(c3ccccc3)CC2)c1	7814	-83.8	-12.9	.	.	.	.
CC1c2cc3c(cc2CCN1CC(=O)Nc1ccc(S(=O)(=O)N2CCCC2)cc1)OCCCO3 (configuration not stated)	6017	-14.7	-2.1	5.1	2.9	-6.0	3.1
CC(=O)NC(CC(=O)Nc1cccc(S(=O)(=O)N2CCCC2)c1)c1ccccc1 (configuration not stated)	5850	-14.1	11.5	8.4	2.9	3.3	0.0
O=C(c1ccc(S(=O)(=O)N2CCCC2)cc1)N1CCN(S(=O)(=O)c2cccc(F)c2)CC1	3836	-11.1	22.5	16.3	5.6	0.5	-1.1
Cc1sc2nc3ccc(N4CCCCC4)nn3c(=O)c2c1C	4211	-77.8	9.5	.	.	1.4	-1.2
CC1OC(Nc2ccc(OC(F)(F)F)cc2)C(O)C(O)C1O (configuration not stated)	8909	-81.4	-3.4	11.1	17.2	4.3	3.6
O=S(=O)(NN=Cc1ccc(N2CCOCC2)cc1)c1ccc(Br)cc1	.	.	.	2.7	2.1	1.8	-1.1
CCCN(CC1CC1)C(=S)Nc1ccccc1F	4168	-14.1	.	-3.3	8.5	1.7	1.1
S=c1[nH]c2cnccc2n1Cc1ccccc1	4085	3.5	8.1	-1.5	3.7	1.4	-0.2
Cc1cccc(N=Nc2c(C)[nH]n(C(N)=S)c2=O)c1C	.	.	-4.4	-7.2	-5.4	5.9	4.9
CN1CCN(S(=O)(=O)c2ccc(Sc3nnc(-c4cccs4)n3-c3ccccc3)nc2)CC1	?	-11.3	-5.3	6.1	11.0	3.1	6.1
CCOc1ccc(C(C)=O)cc1CSc1nc(C)cc(C)n1	3312	-4.8	-6.9	3.3	2.0	13.2	-62.3
COc1ccccc1CN(C)CC(=O)Nc1ccc(Cl)cc1C(F)(F)F	1997	-6.2	8.0	9.9	3.9	6.8	-3.2
CC(=O)Nc1ccc(NC(=O)CCCNC(=O)c2ccc(Cl)cc2)cc1	5821	-18.0	-1.4	2.8	0.6	2.4	11.6
Cc1ccc(CNC(=O)c2ccc(NS(=O)(=O)c3cccs3)cc2)cc1	4219	-11.3	9.9	.	.	.	.
Cc1ccc(Cn2nnc3c(=O)[nH]c(C4CCCN(C(=O)Nc5ccc(F)cc5F)C4)nc32)cc1 (configuration not stated)	10818	-35.7	-10.3	-2.2	-0.6	6.1	-3.2
CCOC(=O)c1c(NC(=O)CSc2n[nH]c(N)n2)sc(CC)c1C	7837	-1.3	-13.4	-2.4	3.2	10.5	0.0
O=C(Nc1ccccc1C(=O)NN=Cc1ccco1)c1ccc(Cl)cc1	.	.	.	7.8	10.1	3.9	18.2
O=C1CSC(c2ccccn2)N1c1ccc(Cl)c(Cl)c1 (configuration not stated)	5942	-0.5	3.2	15.0	8.3	2.1	11.3
Brc1ccc(OCc2ccccc2)c(CNCc2ccncc2)c1	16749*	-22.0	7.2	13.3	2.4	6.3	-3.2
CCc1ccc(S(=O)(=O)NCCOc2cccc3cccnc23)cc1	5928	-27.0	-0.1	12.3	6.9	4.7	1.4
Cn1c(SCC(=O)Nc2nc3c(s2)CCCC3)nnc1-c1ccccc1	20299*	-17.5	3.4	3.3	3.2	4.9	5.9
CC(C)C(=O)NC(=S)Nc1ccc(S(=O)(=O)N(C)C)cc1	2056	-13.0	8.7	11.9	3.6	-2.1	27.6
O=C(O)c1ccc(-n2c(=O)c3ccccc3c3ccccc3c2=O)cc1	4767	-20.3	-1.5	.	.	3.2	2.8
CCCn1c(N2CCN(CC(=O)Nc3ccc4c(c3)OCCO4)CC2)nc2ccccc21	6956	-8.9	-9.2	3.7	9.0	3.9	3.5
COc1ccc(OC)c(C(c2c(O)c3ccccc3oc2=O)c2c(C)n(C)n(-c3ccccc3)c2=O)c1 (configuration not stated)	4609	.	-10.2	-0.9	-5.5	1.4	1.6
CCN(CC(=O)Nc1ccc(OC)cc1)C(=O)c1ccccc1Sc1ccccc1C#N	?	-12.8	-7.7	4.0	5.4	-3.5	-3.0
CCc1nnc(NN=Cc2c(C)[nH]c3ccccc23)n1N	.	.	.	8.8	-1.0	11.6	2.1

High-throughput results as filed in PubChem BioAssay.
